CtBP-E1A inh: qHTS Assay for Inhibitors of the CtBP/E1A Interaction. CtBP / adenovirus E1A interaction (AlphaScreen). AlphaScreen GST-E1A/His-CtBP binding, 1536-well; active compounds read low; control for the full effect not named in the record. activity change, % (concentration not given with the values). 0.49% of 340,000 active; in the data active means activity change below about -65%; inconclusive means about -30% to -65%; inactive means above about -30%; also: % is scaled to controls: 0 for no effect and ±100 for the full control effect
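AlphaScreen with 125 nM GST-E1A and 125 nM His-CtBP (5X stocks) in Tris pH 8.0, 300 mM NaCl, BSA, Tween 20, TCEP. Compounds preincubated 2 h at 37 deg C, then glutathione donor/nickel acceptor beads added for 1 h at 37 deg C in dark.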
Six1-Eya2 blk: qHTS Assay for Inhibitors of the Six1/Eya2 Interaction. AlphaScreen GST-Six1/His-Eya2 binding, biochemical; active compounds read low; control for the full effect not named in the record. activity change, % (no concentration beside the values). 0.56% of 360,000 active; in the data active = activity change below about -65%; inconclusive = about -30% to -65%; inactive = above about -30%; also: % is scaled to controls: 0 for no effect and ±100 for the full control effect
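Compounds are tested against tagged Six1 and Eya2 proteins bridged by glutathione donor and nickel acceptor beads; after a one-hour incubation at 37 °C without light, AlphaScreen emission is recorded.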
PINK1 expr mod: A Quantitative High throughput Screen to Identify Chemical Modulators of PINK1 Expression | PINK1 immunofluorescence, high-content cytometry, 24 h | Potency, µM (highest dose often 76.6 µM), inactives show at the highest dose activation (PINK1 increase), hits mostly activators | 0.2% of 410,000 active; active = well fitted activation curve with a large enough effect; inconclusive = small, poorly fitted or top-dose-only effect; inactive = flat fitted curve, though single readings scatter; cell line not stated here;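 also: potency is read from the fitted curve at half-maximal effect; % of control where 0% means no effect; nearly all actives have a fitted effect of over 65% in size; a mitochondrial uncoupler was the plate control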
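Readout is PINK1 immunofluorescence, quantified alongside mitochondrial, cell and nuclear markers by laser-scanning microplate cytometry. Cells from a stable line were exposed to compound titrations (5 concentrations) for 24 hours, with CCCP controls.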
TRPML1 agonist: qHTS for Agonists of the Human Mucolipin Transient Receptor Potential 1 (TRPML1); Mucolipin-1 (Homo sapiens), Q9GZU1; TRPML1-expressing cells, Ca2+ dye fluorescence, FDSS; host cell line not named in the record; reference of the full effect not given here; activation, % (concentration not given with the values); 0.12% of 410,000 active; AID 624414, 2012; in the data active = activation above about 50%; inconclusive = about 30% to 50%; inactive = below about 30%; also: 0% is about no effect; the text of the record puts the active cut at 80%
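Tet-induced TRPML1-DL cells, 1,500 per well, cultured overnight, were loaded with a no-wash Ca2+ dye for 45–90 min. Calcium fluorescence was recorded on the FDSS for 110 s after compound addition, before the EC80 agonist (4 uM 54-4) was added.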
TRPML1 inh: qHTS for Inhibitors of the Human Mucolipin Transient Receptor Potential 1 (TRPML1); activity change, negative = inhibition, % (no concentration beside the values); TRPML1-inducible cells, Ca2+ dye fluorescence, FDSS; active compounds read low; inhibition of EC80 agonist-evoked calcium signal; AID 624415, 2012; 0.02% of 390,000 active; Mucolipin-1 (Homo sapiens), Q9GZU1; in the data active means activity change below about -50%; inconclusive means about -30% to -50%; inactive means above about -30%;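 also: stimulus is agonist 54-4 at its EC80 concentration; % is scaled to controls: 0 for no effect and ±100 for the full control effect; compound concentration not given in the record; the text of the record puts the active cut at -80%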
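TRPML1-DL cells, Tet-induced overnight (~16 h, 37 °C) at 1,500 cells/well, were loaded with Ca8 no-wash dye plus quencher for 45-90 min at room temperature. Compounds were pinned during FDSS kinetic reading; agonist 54-4 at EC80 (4 uM final) then added.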
D2 ag: Beta-Arrestin HTS for Positive Allosteric Modulators of the Human D2 Dopamine Receptor: Agonists | D(2) dopamine receptor (Homo sapiens), P14416 | DiscoveRx PathHunter D2 beta-arrestin, luminescence, 90 min; 100% = 57 uM dopamine signal | activation, % (no concentration beside the values) | 0.084% of 360,000 active | AID 624465, 2012; in the data active = activation above about 40%; inconclusive = about 15% to 40%; inactive = below about 15%; also: compound concentration not given in the record; the text of the record calls up to 30% inactive
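DiscoveRx PathHunter D2 beta-arrestin cells (2,100/well) attached overnight, then compound-stimulated 90 min at 37 C in HBSS/10 mM HEPES/0.1% Tween-20 buffer; beta-galactosidase complementation read by luminescence after 1 h at ambient temperature. Dopamine 57 uM final (EC100) as control.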
Starred values were filed as active, the others as inactive; ? = inconclusive. Compounds as they come. About 1% of those tested had a hit in this group.

Assay codes – A = CtBP-E1A inh; B = Six1-Eya2 blk; C = PINK1 expr mod; D = TRPML1 agonist; E = TRPML1 inh; F = D2 ag
> COC(=O)c1sccc1NC(=O)CCC1CCCCC1
  A = 35; B = 36; C = ?; D = 1.7; E = -6; F = -0.3
> O=C(NC(Nc1nc2ccc([N+](=O)[O-])cc2s1)(C(F)(F)F)C(F)(F)F)c1ccccc1
  A = 3; B = -1; C = ?; D = 0.2; E = 14; F = -0.1
> COc1cc(/C=C/C(=O)O)cc(S(=O)(=O)NCCCC(=O)O)c1OC
  A = -10; B = 6; C = -0.8%; D = -0.5; E = -2; F = -4.0
> CCOC(=O)CNc1ncc(C(F)(F)F)cc1Cl
  A = 7; B = 8; C = 6.3%; D = -0.1; E = 8; F = -3.3
> CC(=O)Nc1ccc(S(=O)(=O)N2CCN(C(=O)c3ncoc3-c3ccccc3)CC2)cc1
  A = -8; B = -1; C = 1.9%; D = -0.2; E = 3; F = -1.1
> O=S(=O)(Nc1nnc(C(F)(F)F)s1)c1ccc(Cl)cc1
  A = 0; B = -2; C = 0.3%; D = 1.4; E = -15; F = -0.6
> CC(C)(C)S(=O)(=O)c1c(C(=O)O)cccc1C(=O)O
  A = -1; B = 2; C = 0.6%; D = -0.9; E = -8; F = -0.5
> COc1cccc(NC(=S)N(Cc2ccco2)C(C)c2ccco2)c1 (stereo unspecified)
  A = 3; B = 2; C = 0.3%; D = -1.0; E = 41; F = 0.8
> Cc1ccc(NC(=O)COC(=O)c2ccc3c(c2)OCCO3)cc1
  A = 12; B = 2; C = 0.6%; D = 0.2; E = -3; F = 0.0
> COc1cccc(NC(=S)NCc2cccnc2)c1
  A = -2; B = 9; C = -1.6%; D = -0.5; E = -7; F = 0.5

Shown with two lines to a compound: entries from further up.
Values in the order: CtBP-E1A inh	Six1-Eya2 blk	PINK1 expr mod	TRPML1 agonist	TRPML1 inh	D2 ag
COC(=O)c1sccc1NC(=O)CCC1CCCCC1
 : 35	36	?	1.7	-6	-0.3
O=C(NC(Nc1nc2ccc([N+](=O)[O-])cc2s1)(C(F)(F)F)C(F)(F)F)c1ccccc1
 : 3	-1	?	0.2	14	-0.1
COc1cc(/C=C/C(=O)O)cc(S(=O)(=O)NCCCC(=O)O)c1OC
 : -10	6	-0.8%	-0.5	-2	-4.0
CCOC(=O)CNc1ncc(C(F)(F)F)cc1Cl
 : 7	8	6.3%	-0.1	8	-3.3
CC(=O)Nc1ccc(S(=O)(=O)N2CCN(C(=O)c3ncoc3-c3ccccc3)CC2)cc1
 : -8	-1	1.9%	-0.2	3	-1.1
O=S(=O)(Nc1nnc(C(F)(F)F)s1)c1ccc(Cl)cc1
 : 0	-2	0.3%	1.4	-15	-0.6
CC(C)(C)S(=O)(=O)c1c(C(=O)O)cccc1C(=O)O
 : -1	2	0.6%	-0.9	-8	-0.5
COc1cccc(NC(=S)N(Cc2ccco2)C(C)c2ccco2)c1 (stereo unspecified)
 : 3	2	0.3%	-1.0	41	0.8
Cc1ccc(NC(=O)COC(=O)c2ccc3c(c2)OCCO3)cc1
 : 12	2	0.6%	0.2	-3	0.0
COc1cccc(NC(=S)NCc2cccnc2)c1
 : -2	9	-1.6%	-0.5	-7	0.5

(more compounds)
Assay codes – A = CtBP-E1A inh; B = Six1-Eya2 blk; C = PINK1 expr mod; D = TRPML1 agonist; E = TRPML1 inh; F = D2 ag
> O=C(Cc1ccc([N+](=O)[O-])cc1)OCc1c(F)cccc1Cl
  A = 6; B = -5; C = -0.4%; D = 2.6; E = 24; F = -0.7
> CCOC(=O)CNC(=O)N1CCCC(N(C)CCc2ccccc2)C1 (stereo unspecified)
  A = 7; B = 6; C = -0.5%; D = 0.1; E = -2; F = 7.7
> O=C(NCc1ccccc1)c1cccc(NC(=O)C2CCCC2)c1
  A = 2; B = 0; C = -0.6%; D = -0.8; E = -2; F = 1.8
> Cc1cc(C)n2nc(C(=O)N3CCN(c4ccc([N+](=O)[O-])cc4)CC3)nc2n1
  A = 18; B = 2; C = -2.2%; D = 1.3; E = -21; F = 4.5
> O=C(O)C(c1ccccc1)C(c1ccccc1)c1ccccc1 (stereo unspecified)
  A = 16; B = -2; C = 3.7%; D = 0.3; E = -2; F = 2.0

Screening data from PubChem BioAssay.
